# From PubChem BioAssay
# TAR Tat displ: TAR RNA-Tat peptide displacers, HIV-1, primary screen, biochemical, FRET, FAM/TAMRA-labeled Tat; AID 1259389, 2018; HIV-1 TAR RNA, Tat peptide displacement FRET; stronger effect = higher value; z-score (test concentration not listed); actives 0.6% (n = 100,000);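 also: score is relative to mean and SD of negative controls; some compounds called inactive have numbers as strong as hits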
# CDC25B-CDK2 inh: primary biochemical HTRF screen for blockers of M-phase inducer phosphatase 2 binding to CDK2/cyclin A | AID 1259370, 2018 | z-score (concentration not given with the values) | P30305+P24941 | HTRF CDC25B-CDK2/CyclinA binding, anti-His/anti-Flag; stronger effect = higher value | actives 0.72% (n = 94,000);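 also: score is relative to mean and SD of negative controls; strong numbers were not always called active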
# An asterisk follows results filed as active; / = no result given.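 The calls were made as follows: active = z-score from 3 up in half or more of its runs; inactive = the rest.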
SMILES,TAR Tat displ,CDC25B-CDK2 inh
COc1cc(CNCCSc2nnnn2C)cc(Br)c1OCc1ccccc1F,1.7,-0.37
Cc1ccc(C)c(CC2C(=O)Nc3ccccc32)c1 (stereo unspecified),1.53,-0.51
CCOc1ccc(C2NCCc3cc(OC)c(OC)cc32)cc1OC (stereo unspecified),/,-0.26
NC(N)=NS(=O)(=O)c1ccc(N/C=C\C(=O)c2ccc3c(c2)OCO3)cc1,/,-2.62
COc1ccc(OC)c(C2OC(c3ccc(Br)cc3)=NN2C(C)=O)c1 (stereo unspecified),-0.46,0.65
Cc1cc(-c2ccc(S(=O)(=O)N(C)Cc3ccco3)s2)n[nH]1,-1.28,/
Cn1c(=O)c2c(nc(CN3CCN(c4ccccc4)CC3)n2Cc2c(F)cccc2Cl)n(C)c1=O,1.15,2.25
Cc1noc(NC(=O)c2ccc(C(F)(F)F)cc2)c1[N+](=O)[O-],/,-1.68
CCn1c(C(=O)N2CCCC2)cc2sc(Cl)cc21,/,0.19
CC1=C(C(=O)OC(C)C)C(c2ccc(O)cc2)C2=C(CCCC2=O)N1 (stereo unspecified),0.03,0.06
CC1(C)CC(=O)c2sc(NC(=O)COc3ccc(Cl)cc3)nc2C1,0.69,-1.87
COc1ccccc1N1C(=O)CC(N2CCN(C)CC2)C1=O (stereo unspecified),/,-0.51
C=CCOC(=O)C1=C(C)NC2=C(C(=O)CCC2)C1c1ccccc1Cl (stereo unspecified),-0.01,-2
COCCOC(=O)C1=C(C)NC2=C(C(=O)CC(C)(C)C2)C1c1ccc(OC)c(Br)c1 (stereo unspecified),1.51,-2.18
Cc1cccn2c(=O)c3cc(C(=O)N4CCN(c5cccc(Cl)c5)CC4)n(C)c3nc12,1.02,/
CCOC(=O)/C(C#N)=C1\NC(CO)C(c2ccccc2)O1 (stereo unspecified),/,-0.87
CCOC(=O)c1c(NC(=O)c2noc3c2CCc2ccccc2-3)sc(C(C)=O)c1C,/,-0.32
CC1=C(C(=O)OC(C)C)C(c2cccnc2)c2c(nc(SCC(C)C)[nH]c2=O)N1 (stereo unspecified),-0.87,-0.79
CCCS(=O)(=O)/C(C#N)=C/c1ccc(-c2ccc(OC)cc2)s1,/,1.03
CCc1cccc(NS(=O)(=O)c2cn(C)cn2)c1,1.19,/
CCOC(=O)Cn1c(=O)oc2cc(S(=O)(=O)N3CCCC(C(=O)OCC)C3)ccc21 (stereo unspecified),-0.24,-1.06
CCOC(=O)C1CCN(C(=O)c2cc3c(s2)-c2ccc(Cl)cc2SC3)CC1,1.09,-1.33
COC(=O)C(C)Sc1nnc(-c2c[nH]c3ccccc23)n1-c1ccc(OC)cc1 (stereo unspecified),/,-0.71
CCCOC(=O)C1=C(C)NC2=C(C(=O)CC(C)(C)C2)C1c1ccc(O)c(OC)c1 (stereo unspecified),0.63,-2.49
CN1C(=O)C(C)(C)c2cc(S(=O)(=O)N(C)CC(=O)Nc3nccs3)ccc21,1.8,/
# The list goes on:
SMILES,TAR Tat displ,CDC25B-CDK2 inh
CC(=O)N1N=C(c2cc(C3CC3)nc3ccccc23)OC1c1ccc([N+](=O)[O-])s1 (stereo unspecified),2.1,/
CCC(C)Sc1nc2c(c(=O)[nH]c(=O)n2C)n1CC(O)COc1ccc(Cl)cc1 (stereo unspecified),/,-1.13
CCCCSc1nc2c(c(=O)[nH]1)C(c1ccccc1)C(C(=O)OC(C)C)=C(C)N2 (stereo unspecified),0.27,-1.38
c1ccc2c(N3CCN(C4CCCCC4)CC3)nnc(Cc3ccncc3)c2c1,0.46,-0.13
COC(=O)c1cn(C(=O)COc2ccccc2Cl)c2ccccc12,-0.6,-0.44
COC(=O)Cn1cc(-c2nnc(C)o2)c2ccccc21,2.06,1.08
Cc1nc2ccc(S(=O)(=O)NCC(=O)N3CCC(N4CCCCC4)CC3)cc2s1,0.18,-0.06
COc1ccc2c(c1)-c1nc(C)sc1CC2,0.42,-1.28
O=C(C1CCN(c2nnc(-n3cccc3)s2)CC1)N1CCN(c2ccccn2)CC1,0.22,/
CC(C)C(O)(c1ccc(O)cc1)C(CN1CCCCC1)c1ccccc1 (stereo unspecified),0.59,-0.88
CSc1cccc(NC2=NS(=O)(=O)C(c3cccc(Cl)c3)=C2C)c1,1.76,-8.83
COc1cc(C2C=C(C(=O)O)Nc3nnnn32)ccc1OC(C)C (stereo unspecified),22,/
COC(=O)CSC(=O)N/C=C/c1ccsc1,/,0.01
COc1ccc2oc(=O)c(C(=O)C[n+]3ccc(NC(C)=O)cc3)cc2c1,/,-1.58
CC(C)CC(C(=O)Nc1nccs1)N1C(=O)c2ccccc2C1=O (stereo unspecified),/,-0.45
Cc1cc(NC2CCCC2)n2ncc(-c3ccc(F)cc3)c2n1,0.08,-0.33
O=C(CCC(C(=O)O)N1C(=O)c2ccccc2C1=O)Nc1ccc2c(c1)COCO2 (stereo unspecified),/,-1
Cc1ccc(Nc2ncnc3sc(C)c(C)c23)cc1C,0.59,0.31
c1ccc(C2=NNC(c3ccccc3)=NN2)cc1,/,-1.36
CCOC(=O)CN1CC23C=CC(O2)C(C(=O)O)C3C1=O (stereo unspecified),1.04,0.86
COc1ccc(Oc2ccc(Oc3ccc(OC)cc3)cc2)cc1,1.85,-0.4
O=C(Nc1ccccc1C(=O)NNc1c(Cl)cc(Cl)cc1Cl)c1cccs1,/,-1.27
O=C(Nc1nccs1)C1=Cc2cc(Cl)ccc2OC=C1,-0.38,0.75
O=C(O)CSC(SCC(=O)O)c1cccs1,/,-0.3
CC(C(=O)N1CCN(c2ccccn2)CC1)n1ccc2cc(S(=O)(=O)N3CCCC3)ccc21 (stereo unspecified),1.22,/
# (list continues)
SMILES,TAR Tat displ,CDC25B-CDK2 inh
Cc1cc(C)n2c(SCC(C)C)nnc2n1,1.18,0.31
CCN1CCc2nc3sc(C(=O)NC4CCCCC4)c(N)c3cc2C1,1.59,-1.38
COc1ccc2ncc(S(=O)(=O)c3ccccc3)c(N3CCCC(C)C3)c2c1 (stereo unspecified),0.29,2.46
FC(F)(F)c1cccc(Nc2ncnc3c2cnn3-c2ccccc2)c1,/,0.06
O=C(c1ccccc1Br)N(Cc1cccs1)C1CCS(=O)(=O)C1 (stereo unspecified),-0.68,0.81
COC(=S)NC(=O)/C=C/c1ccccc1,/,1.07
Cc1nc(N2CCOCC2)cc(N2CCN(C(=O)Nc3ccccc3)CC2)n1,0.59,-1.23
CCc1cc(Nc2ccc(C)c(C)c2)n2ncnc2n1,0.64,-1.53
Cc1sc2c(c1C)CSC(C(=O)N1CCN(c3ccc(F)cc3)CC1)=C2,-0.04,/
O=C1CCSc2ccc(S(=O)(=O)N3CCN(c4ccc(N5CCOCC5)nn4)CC3)cc2N1,0.6,/
COc1cccc(-n2c3c(c(SCc4ccccc4Cl)nc2=O)CCC3)c1,0.51,1.05
O=C1CC(NCCc2ccc(Cl)cc2)C(=O)N1c1ccc(Br)cc1 (stereo unspecified),-1.2,-1.41
COc1ccc2c(c1)CC(NC(=O)NCc1ccc(C)o1)CO2 (stereo unspecified),1.01,/
CC1CCC(C(=O)Nc2ccc3c(c2)oc(=O)n3C)CC1 (stereo unspecified),-1.28,/
Cc1[nH]n(-c2ccccc2)c(=O)c1C1(C(F)(F)F)C(=O)Nc2c1c(=O)[nH]c(=O)n2-c1ccccc1 (stereo unspecified),/,-3.04
Fc1ccc(CN2CCN(C3CCN(Cc4ccccc4)CC3)CC2)cc1,/,-0.82
CCOC(=O)C(Cc1cc(F)cc2c1OCOC2)(NC(C)=O)C(=O)OCC,/,-1.27
O=C(CSc1ncn[nH]1)N1c2ccccc2CCc2ccccc21,/,-1.09
O=C1CC(c2cccs2)Cc2nc(N3CCN(c4ccccc4)CC3)ncc21 (stereo unspecified),1.19,-2.22
Cc1ccc2nc(Nc3ccc4[nH]c(=O)[nH]c4c3)c(-n3nc(C)cc3C)nc2c1,-0.1,-1.32
COc1ccc(CC(=O)NCc2ccc(N3CCN(C)CC3)cc2)cc1OC,/,-1.17
CCc1ccc2nc(Nc3nc4ccccc4c(=O)[nH]3)nc(C)c2c1,/,1.77
CCOc1ccccc1NC(=O)NC(C)c1c(-n2cccc2)sc2c1CCCC2 (stereo unspecified),0.22,-1.09
CC(Sc1n[nH]c2nc3ccccc3n12)C(=O)O (stereo unspecified),-0.5,-0.4
COc1ccc2cc3c(nc2c1)N(S(=O)(=O)c1ccc(Cl)cc1)CC3,-0.36,-0.74

# 14 compounds already listed, ordered by molar mass, high to low.
SMILES,TAR Tat displ,CDC25B-CDK2 inh
O=C1CCSc2ccc(S(=O)(=O)N3CCN(c4ccc(N5CCOCC5)nn4)CC3)cc2N1,0.6,/
Cc1[nH]n(-c2ccccc2)c(=O)c1C1(C(F)(F)F)C(=O)Nc2c1c(=O)[nH]c(=O)n2-c1ccccc1 (stereo unspecified),/,-3.04
O=C1CC(NCCc2ccc(Cl)cc2)C(=O)N1c1ccc(Br)cc1 (stereo unspecified),-1.2,-1.41
COc1cccc(-n2c3c(c(SCc4ccccc4Cl)nc2=O)CCC3)c1,0.51,1.05
Cc1ccc2nc(Nc3ccc4[nH]c(=O)[nH]c4c3)c(-n3nc(C)cc3C)nc2c1,-0.1,-1.32
CCOC(=O)C(Cc1cc(F)cc2c1OCOC2)(NC(C)=O)C(=O)OCC,/,-1.27
Cc1nc(N2CCOCC2)cc(N2CCN(C(=O)Nc3ccccc3)CC2)n1,0.59,-1.23
Fc1ccc(CN2CCN(C3CCN(Cc4ccccc4)CC3)CC2)cc1,/,-0.82
FC(F)(F)c1cccc(Nc2ncnc3c2cnn3-c2ccccc2)c1,/,0.06
O=C(CSc1ncn[nH]1)N1c2ccccc2CCc2ccccc21,/,-1.09
CCc1ccc2nc(Nc3nc4ccccc4c(=O)[nH]3)nc(C)c2c1,/,1.77
COc1ccc2c(c1)CC(NC(=O)NCc1ccc(C)o1)CO2 (stereo unspecified),1.01,/
CC1CCC(C(=O)Nc2ccc3c(c2)oc(=O)n3C)CC1 (stereo unspecified),-1.28,/
CCc1cc(Nc2ccc(C)c(C)c2)n2ncnc2n1,0.64,-1.53

# Further compounds follow:
SMILES,TAR Tat displ,CDC25B-CDK2 inh
CN(C(=O)c1nc(S(C)(=O)=O)ncc1Cl)c1ccccc1,1.01,-1.55
CCC(Sc1nnc(C)n2c1cc1occc12)C(=O)Nc1ccc(F)cc1 (stereo unspecified),1.56,/
O=C(NC1CCCCC1)c1ccc2c(c1)sc1nc(-c3ccc(F)cc3)cn12,1.61,/
CCOC(=O)c1ccc(N2C(=O)c3n[nH]c(-c4ccco4)c3C2c2ccc(C(=O)OC)cc2)cc1 (stereo unspecified),-4.25,/
CC(=O)Nc1nnc(CCS(=O)(=O)c2ccc3ccccc3c2)s1,-1.44,-1.68
Cc1ccc(C)c(CN2C(=O)CSc3ccc(C(=O)NCCCN4CCOCC4)cc32)c1,/,1.23
COc1ncnc2c1cnn2C,/,-2.76
Cc1ccc(S(=O)(=O)Nc2ccc(Cl)c(N3CCCS3(=O)=O)c2)c(C)c1,1.16,/
O=C(Cn1cncn1)c1ccc(Cl)cc1,1.68,-0.29
COC(=O)c1cc(S(=O)(=O)N(CCCN2CCOCC2)Cc2ccco2)c[nH]1,0.94,/
CN(C)/C=C/C(=O)c1cc(-c2cccc(C(F)(F)F)c2)no1,/,-0.97
CSc1nsc(SC)c1-c1nn[nH]n1,/,-1.27
COc1ccc(-c2noc(CN(C(C)C)S(=O)(=O)c3ccc(OC)cc3)n2)cc1,1.07,-0.39
CCOC(=O)Cn1nnc(-c2ccc(C(C)(C)C)cc2)n1,/,-0.52
COc1ccc(Nc2nc3c(S(=O)(=O)c4ccccc4)nnn3c3ccccc23)c(OC)c1,0.69,-2.52
CCN(c1ccccc1)S(=O)(=O)c1ccc2c(c1)NC(=O)C(C)CS2 (stereo unspecified),1.05,/
COc1ccc(OC)c(NC(=O)c2cc(S(=O)(=O)N3CCCC3)cn2C)c1,2.65,/
N#Cc1nc(-c2ccc(COc3ccc(Cl)cc3)o2)oc1NCc1ccc2c(c1)OCO2,0.18,-0.92
O=C(Nc1nc(CC(=O)N2CCN(C(=O)c3ccco3)CC2)cs1)c1ccc2c(c1)OCO2,0.96,/
Cc1ccc2oc(-c3cccc(N)c3C)nc2c1,1.75,-2.2
Clc1ccc(I)c(Cl)c1Cl,/,-1.94
CCNC(=O)c1c(C)[nH]c(C(=O)OCC)c1C,/,-0.68
Cc1nn(-c2nncc(-c3ccccc3)n2)c2c1C(c1cccc(Br)c1)CC(=O)N2 (stereo unspecified),3.41,-1.19
CCOc1ccc(OCCn2c(=S)[nH]c3c(N)ncnc32)cc1,/,-1.84
CC1CCC(NC(=O)C2(C)Cn3c(nc4ccccc43)C(=O)N2CCN(C)C)CC1 (stereo unspecified),1.21,/
# Following part
SMILES,TAR Tat displ,CDC25B-CDK2 inh
Cn1cc(S(=O)(=O)N2CCc3ccccc32)cc1C(=O)N1CCCc2ccccc21,-0.49,-1.37
Brc1ccc(-c2nnc3n2N=C(c2cccs2)CS3)cc1,/,-1.26
CN(C(=O)Cn1c(=O)sc2ccccc21)c1nnc(SCc2ccccc2)s1,0.84,-0.94
CC(C)c1ccc2c(c1)-c1ccccc1S(=O)(=O)N2CC(=O)NC(C)(C)C,1.55,-1.53
Cn1ncc2c(Nc3cccc(Cl)c3)nc(Nc3ccc(F)cc3)nc21,0.57,/
N#Cc1cc2c(=O)n3ccccc3nc2n(CCc2ccccc2)c1=O,1.19,-4.47
CN(CCCNC(=O)c1ccc2c(c1)NC(=O)C1CCCCN21)C1CCCCC1 (stereo unspecified),1.62,/
CC(O)c1ccc(Oc2ccc(C(C)O)cc2)cc1 (stereo unspecified),1.78,-2.49
Cc1ncc(-c2ccc(C)c(S(=O)(=O)Nc3cccc(F)c3)c2)o1,0.62,/
O=S(=O)(c1cccc(-c2cn3ccccc3n2)c1)N1CCCC1,-0.73,-0.48

# A draw from above in order of length of the SMILES, smallest number first.
SMILES,TAR Tat displ,CDC25B-CDK2 inh
N#Cc1cc2c(=O)n3ccccc3nc2n(CCc2ccccc2)c1=O,1.19,-4.47
CN(CCCNC(=O)c1ccc2c(c1)NC(=O)C1CCCCN21)C1CCCCC1 (stereo unspecified),1.62,/
CC(C)c1ccc2c(c1)-c1ccccc1S(=O)(=O)N2CC(=O)NC(C)(C)C,1.55,-1.53
